# Bioassay records: PubChem BioAssay, several laboratories
# BJeLR lethal: MLPCN primary cell-based screen for lethality selective to Ras in HRASV12 cells; BJeLR (HRASV12) viability, CellTiter-Glo ATP luminescence, 48 h; reference of the scale not given here; inhibition, % (no concentration beside the values); 300,000 compounds, 0.17% hits; AID 1554, 2009;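 active = replicate mean above 50%; inconclusive = above 50% but judged a plate artefact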;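 also: 50 nL library stock added to about 25 µL; numbers are from one replicate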
# Mtb hypoxia inh: PubChem AID 1159583; M. tuberculosis hypoxia-regulated fluorescent reporter, fluorescence; 300,000 compounds, 0.1% hits; fluorescence inhibition, % (no concentration beside the values);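 active = 35 to 45% if threefold the growth effect, above 45% if 1.5-fold the growth effect; inactive = the rest, general growth blockers included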;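 also: wells of about 50 µL received 100 nL stock; 0% = vehicle wells and 100% = reference inhibitor wells; whole bacteria with a GFP reporter of the hypoxia response; strong numbers were not always called active; many hits fall short of the cut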
# RN4220 kill: growth inhibition of S. aureus RN4220, primary screen, OD600 | inhibition, % (no concentration beside the values) | 330,000 compounds, 0.33% hits | 16 h | AID 1259311, 2017;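 active = z-score of -3 or lower and OD600 up to 0.18 on both plates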;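 also: plate controls were untreated cells for no effect and reference antibiotic for full effect; stock transfer was 100 nL into about 80 µL; one replicate is shown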
# PrP UTR inh: inhibition of PrP 5' UTR reporter expression; cell-based PrP 5' UTR mRNA reporter, plate reader; inhibition, % (no concentration beside the values); 340,000 compounds, 0.35% hits; AID 488862, 2010;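 active = every replicate at 50% or more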;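 also: 0 = median of the neutral control wells; tested in H4 reporter cells; numbers are from one replicate; inactives centre near -14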
# ugtP null kill: growth inhibition of ugtP-null S. aureus, primary screen, RN4220 ugtP deletion, OD600; 16 h; some inactives read as strong as hits; growth inhibition, % (concentration not given with the values); 330,000 compounds, 0.54% hits; AID 1259309, 2017;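 active = z-score under -3 and OD600 up to 0.15 on both plates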;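 also: plate controls were untreated wells for no effect and antibiotic for full effect; wells of about 80 µL received 100 nL stock; the first replicate is given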
# Autofluor counter: compound fluorescence in toxin protease inhibitor counterscreen; compound autofluorescence counterscreen, microsphere flow cytometry; active compounds read high; fluorescence intensity (concentration not given with the values); 360,000 compounds, 3.1% hits; AID 624483;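 active = at least 3 SD above the mean of all compounds, about 16000 in these data; inconclusive = too few beads counted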;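 also: 100 nL of 1 mM stock went into each well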
# Mtb hypoxia inh growth: also measured in Mtb hypoxia inh; calls as there; growth inhibition, %; measured here: M. tuberculosis growth (absorbance);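 0% = vehicle and 100% = reference antibiotic; read after six days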
# The depositor's hits bear a star; ? = inconclusive; · = no result given; & = joins results of further samples.
# The opening 2 compounds, to show the layout:
SMILES,BJeLR lethal,Mtb hypoxia inh,Mtb hypoxia inh growth,RN4220 kill,PrP UTR inh,ugtP null kill,Autofluor counter
CCc1ccccc1N(CC(=O)NCc1ccco1)C(=O)CCC(=O)Nc1nccs1,-16,0,-3,2.1,-28,1,3658
CCSc1ccc([C@@H]2[C@H]3C(=O)N(CC)C(=O)[C@H]3[C@]3(C(=O)OC)CCCCN23)cc1,-10,·,·,·,-26,·,21568*

# The whole of this part (from the top)
SMILES,BJeLR lethal,Mtb hypoxia inh,Mtb hypoxia inh growth,RN4220 kill,PrP UTR inh,ugtP null kill,Autofluor counter
CCc1ccccc1N(CC(=O)NCc1ccco1)C(=O)CCC(=O)Nc1nccs1,-16,0,-3,2.1,-28,1,3658
CCSc1ccc([C@@H]2[C@H]3C(=O)N(CC)C(=O)[C@H]3[C@]3(C(=O)OC)CCCCN23)cc1,-10,·,·,·,-26,·,21568*
NC(=O)c1ccsc1NC(=O)COC(=O)c1c(F)cccc1Cl,·,0,5,5.7,-26,-3,?
O=Cc1ccc(OCC(=O)N2CCc3ccccc32)c(Br)c1,·,7,10,-2.2,-93,2,6181
O=C(NNC(=O)[C@@H]1CCCC[C@@H]1C(=O)O)c1cccs1,-2,8,8,4.5,-13,3,4047
O=C(Nc1ccc2c(c1)OCCO2)c1cccs1,0,-19,-10,2.3,-102,13,1990
COc1ccc(/C=N\Nc2ccccn2)c(OC)c1,6,·,·,·,-76,·,3578
CC1(C)OC(c2ccccc2)=C/C(=C/C=N/NC(=O)c2ccncc2)O1,-9,·,·,·,-4,·,3279
Cc1ccccc1NC(=O)C(C)Sc1nnc(-c2ccncc2)n1CC1CCCO1 (configuration not stated),0,-8,-4,0.3,6,4,5039
CCOc1ccc(Br)cc1CNCCN1CCOCC1,-9,7,2,2.9,-6,9,1986
N#Cc1nc(-c2ccc(F)cc2)oc1NCCN1CCOCC1,7,10,9,-0.9,2,13,5639
CCCCCCSc1cc(-c2nc3cc(C)ccn3c2NCCCC)ccc1OC,-1,·,·,·,-8,·,4500&6304
Cc1ccc(NC(=O)CN(C)C(=O)C(C)OC(=O)c2ccccc2NCCO)cc1 (configuration not stated),-4,7,-3,2.3,6,3,4616
COC(=O)c1sccc1NC(=O)c1ccc(Cl)cc1,9,7,1,3.4,-22,10,2976
CC1(C)CCC(=O)N2CC[C@H]3C[C@H](OC(=O)Nc4ccc5c(c4)OCO5)C[C@@H]1[C@H]32,0,·,·,·,-32,·,4148
CC(=NNC(=O)CNC(=O)c1cccnc1)c1ccc(Cl)c(Cl)c1,·,1,-8,-0.3,·,-5,·
O=C(/C=C/c1cccs1)c1cc(Cl)ccc1OC(=O)N1CCOCC1,-3,·,·,5.7,2,12,2166
COC(CC(O)CC(O)COCc1ccccc1)OC (configuration not stated),·,2&1&9&7,4&-2&12&2,4.7&2.6&4.8&5.4,·,4&-2&4&-6,·
COc1ccc(OC)c(-c2nnc(SCC(=O)NC3CCCCC3)o2)c1,1,·,·,2.4,-11,1,6124
CCCCOc1ccccc1C(=O)NCC(=O)O,-8,8,3,3.4,-15,-1,7693
CCOc1ccc(CNCCNC(=O)c2nonc2N)cc1,-4,3,9,-1.0,-17,14,5240
NNC(=O)CNC(c1ccccc1)c1cc(Br)ccc1NC(=O)CCN1CCOCC1 (configuration not stated),13,·,·,2.0,-17,-7,2643
Cc1cc(C(=O)NCCc2ccc(Cl)cc2)n(-c2ccccc2)n1,7,11,0,11,0,7,4512
COc1cccc(/C=N/Nc2snc(SC)c2C#N)c1O,38,·,·,·,-73,·,2117
CCCOc1ccc(-c2nc(-c3ccc([N+](=O)[O-])cc3)cs2)cc1,-16,5,6,-5.8,-17,7,4194

# The list continues:
SMILES,BJeLR lethal,Mtb hypoxia inh,Mtb hypoxia inh growth,RN4220 kill,PrP UTR inh,ugtP null kill,Autofluor counter
Cc1nc(NCCO)c2nnn(Cc3ccccc3F)c2n1,-9,·,·,1.6,-21,9,3871
CC(=O)c1ccc(-n2c(SCC(=O)c3c[nH]c4ccccc34)nc3ccccc3c2=O)cc1,-8,7,11,-9.2,-10,-8,2388
O=C(O)c1ccc(S(=O)(=O)Cc2ccccc2)cc1,-4,5,10,3.5,-5,2,9214
CSc1ccccc1C(=O)NCc1ccc2c(c1)OCO2,15,8,-1,5.5,-1,14,20402*
COC(=O)CCCCCCCCC(=O)Nc1nc2ccccc2s1,4,7,7,0.7,4,-2,3365
O=C(Nc1ccc(C(F)(F)F)cc1)C1CCCN1S(=O)(=O)c1cccc2cccnc12 (configuration not stated),-5,3,0,-4.0,-6,10,16378*
Cc1ccccc1C(=O)Oc1cc(N)n(S(C)(=O)=O)n1,-5,-4,-3,9.3,-19,18,4842
Cc1cccc(C)c1NC(=O)CCn1cnc2ccccc2c1=O,-2,9,1,3.6,-36,4,4563
Cc1ccc(C(=O)Nc2ccccc2SCC2CSc3nc4ccccc4c(=O)n32)cc1 (configuration not stated),18,·,·,-1.3,-20,4,2780
COc1ccc(-c2oc3cccnc3c2-c2ccc(OC)nc2)cc1,-2,5,4,10.0,-15,-2,3377
CN1CCN(C(=S)c2cn(Cc3ccccc3F)c3ccccc23)CC1,3,2,1,-3.0,-18,19,4154
COC(=O)C1(O)CC(C(C)C)=NN1C(=O)c1ccccc1 (configuration not stated),3,-8,11,2.9,-27,5,2526
CC(=O)c1c(O)cc(C)n(-c2ccc(F)cc2)c1=O,6,-3,7,4.4,-22,11,2847
O=S(=O)(c1ccc(-c2ccno2)s1)N1CCCCC1,-17,-2,-5,0.8,-26,-1,5315
Cc1nc(SCC(=O)NCc2ccco2)c2c(=O)n(C)c(=O)n(CC(C)C)c2n1,-24,5,3,11,-19,12,3205
COc1ccc(-c2nnc(NC(=O)c3ccc([N+](=O)[O-])o3)o2)c(OC)c1,-7,·,·,2.0,-7,96*,4322
COC(=O)c1nnn(-c2ccsc2C(=O)OC)c1C(=O)OC,7,17,2,15,-7,7,3988
CCc1ccccc1NC(=O)CN1CCN(C(=O)CNC(=O)Cc2cccc3ccccc23)CC1,·,4,8,-2.1,-9,10,3315
O=S(=O)(c1ccccc1)N1N=C(c2ccccc2)CC1c1ccccc1F (configuration not stated),10,-3,-1,1.2,-12,11,3684
CC1OC(C[N+](C)(C)C)CC1O (configuration not stated),·,9,0,3.9,-16,-5,5377
O=C(c1cccc(S(=O)(=O)N2CCOCC2)c1)N1CCCC(C(F)(F)F)C1 (configuration not stated),-12,-1,0,-1.7,-13,5,·
COC(=O)C1=C(c2cc3ccccc3s2)C[C@@H]2CC[C@H]1N2C(=O)NC1CC1,1,·,·,·,-12,·,2895
O=c1cc(CN2CCN(S(=O)(=O)c3ccccc3)CC2)nc2ccc(Cl)cn12,·,7,1,2.3,-12,2,7897
CC1c2[nH]c3ccccc3c2C[C@H]2C(=O)N(CCCO)CC(=O)N12 (some centres not stated),-19,15,4,4.1,-18,3,3327
Cc1cc(C)nc(SCC(=O)OCC(=O)N(C)c2c(N)n(Cc3ccccc3)c(=O)[nH]c2=O)n1,-4,·,·,1.0,4,3,5560

# Next structures follow:
SMILES,BJeLR lethal,Mtb hypoxia inh,Mtb hypoxia inh growth,RN4220 kill,PrP UTR inh,ugtP null kill,Autofluor counter
COC(=O)CCC(=O)OC1(C)C(=O)C=C2C=C(C3CC3)N(CCN3CCOCC3)C=C2C1=O (configuration not stated),-11,10,-4,1.9,-30,-2,2949
CCNC(=S)Nc1cc2oc3ccccc3c2cc1OC,4,-3,2,1.7,-17,-3,5689
CC1CCCN(S(=O)(=O)c2ccc(NC(=O)C3CCN(C(=O)C(C)(C)C)CC3)cc2)C1 (configuration not stated),·,0,2,1.4,-18,-3,4016
CCC(C)NC(=O)CCC(=O)Nc1ccc2nc(N3CCOCC3)cc(C)c2c1 (configuration not stated),7,·,·,10,-27,2,2804
O=C(CCCOc1ccc(Cl)cc1Cl)NCCCn1ccnc1,7,8,6,3.9,-31,-3,2438
CCN1C[C@@H]2[C@@H]3C(=O)N(Cc4ccccc4)C(=O)[C@@H]3[C@](C)(C(=O)OC)N2C1=NC,·,-8,7,1.9,-7,1,3635
O=C(CSc1ncccn1)NCCc1ccccc1,-3,16,5,3.2,-11,-1,3843
Cn1c(NCCc2ccccc2)cc(=O)n(C)c1=O,4,13,3,-8.5,-12,-2,2925
Cn1nc(C(C)(C)C)c(NC(=O)c2sccc2Cl)c1C(C)(C)C,1,-2,0,2.5,-11,3,3896
COc1cc(C(=O)Nc2ccccc2N2CCOCC2)ccc1OCc1c(C)noc1C,4,12,11,6.0,-21,18,2268
CC(=O)Nc1c2c(nn1-c1cccc(Cl)c1)CS(=O)(=O)C2,-3,3,1,0.1,-7,-6,5597
COc1cccc(-c2nnn(CC(=O)O)n2)c1,-15,2,1,0.7,-10,6,11098
O=C(Nc1ccc(C(=O)N2CCCC2)cc1)c1ccc2c(c1)OCO2,12,-5,4,2.2,·,-6,10885
CCCc1cc(N2CCCC(C(=O)Nc3ccc(OC)cc3OC)C2)n2ncnc2n1 (configuration not stated),-13,4,3,5.4,-9,3,8039
Cc1cc(=O)n(-c2ccc3ccccc3n2)[nH]1,-2,6,3,5.9,-7,-2,17043*
CC1CCC(NC(=O)CCNC(=O)c2ccccc2)CC1 (configuration not stated),2,-7,0,1.5,-4,9,4373
COc1ccc(C(=O)NNC(=O)c2ccc3ccccc3n2)cc1,·,8,-1,4.4,-32,-11,2915
COc1ccc(C2C=CCN(C(=O)C3CCCC3)C(Cc3ccccc3)C(=O)N2Cc2ccc(F)cc2)cc1 (configuration not stated),·,19,4,-2.9,·,-3,·
Cc1cc(C)c2nc(SCC(=O)Nc3cc(C)on3)c(C)cc2c1,-6,5,2,1.3,-10,10,4058
COC(=O)c1cc2c(cc1[N+](=O)[O-])OCO2,-3,14,5,8.2,-8,4,1951
Cc1sc2nc(CSc3ccccc3)nc(N3CCOCC3)c2c1C,-9,11,7,7.3,-3,23,1870
Cc1onc(C(=O)NC(C)c2ccccc2)c1[N+](=O)[O-] (configuration not stated),8,7,3,5.0,-14,8,2503
Cc1ccc([N+](=O)[O-])cc1NC(=O)C(C)N1CCCCC1 (configuration not stated),-2,6,8,7.8,-4,0,4527
COc1ccc(C=NNC(=O)CSc2ccccn2)cc1OC,·,-2,-8,-7.2,·,-7,·
C=C(C)Cn1c(CCNC(=O)C(C)(C)C)nc2ccccc21,-10,-1,8,1.4,-11,-6,4472

# Next section:
SMILES,BJeLR lethal,Mtb hypoxia inh,Mtb hypoxia inh growth,RN4220 kill,PrP UTR inh,ugtP null kill,Autofluor counter
OC(c1ccccc1)C(O)c1ccccc1 (configuration not stated),1,6,10,3.4,·,3,6000
Cc1c(OC(C)C(=O)NCc2ccccn2)ccc2c3c(c(=O)oc12)CCC3 (configuration not stated),6,13,-2,2.9,-10,11,6024
Cc1ccccc1NC(=O)NCCCCc1ccccc1,13,-5,10,-1.1,3,5,5944
Cc1nc2sc(C(c3ccco3)N3CCN(c4ccccc4)CC3)c(O)n2n1 (configuration not stated),5,10,14,-9.0,-8,-4,6422
CCOc1ccc(Br)cc1S(=O)(=O)Nc1ccc(N2CCOCC2)cc1,2,6,8,6.3,-3,6,2981
O=C(CNC(=O)c1cccs1)Nc1ccncc1,0,3,7,2.5,-15,3,5759
C/C(=N/Oc1nc(C)cc(C)n1)c1ccccc1,-3,·,·,·,-40,·,2514
O=C(CCC(=O)NC1CCCCCC1)Nc1nnc(C(F)(F)F)s1,5,-3,0,0.8,-22,0,21138*
O=C(Nc1ccn(-c2ccccc2)n1)c1ccccc1Br,-7,13,-1,2.1,-59,5,2550
OCC1(Cc2ccc(F)cc2)CCCN(Cc2ccc(F)cc2Cl)C1 (configuration not stated),-9,-11,-12,-0.4,-7,-18,4431
Cc1cc(/C=N/O)c(C)n1-c1ccccc1,-7,·,·,·,-26,·,1999
COc1ccc2c(c1)C(=NO)c1cc(OC)ccc1-2,-2,5,-2,-3.1,-29,100*,4670
COc1cccc(CC2CC(=O)N(CCc3ccc4c(c3)OCO4)C2=O)c1 (configuration not stated),3,·,·,5.4,-30,9,2745
O=C(Nc1nccs1)c1ccccc1N=Cc1ccccc1,4,·,·,-2.6,-35,-10,2808
CCOC(=O)CC1c2cc(C(F)(F)F)ccc2S(=O)(=O)N1Cc1ccccc1 (configuration not stated),·,0,13,11,·,6,·
COc1ccc(NC(=S)N(CCN2CCOCC2)Cc2cc3cc4c(cc3[nH]c2=O)OCO4)cc1,6,2,1,5.0,·,-1,·
COc1ccc(OCc2cc(C(=O)NCC3CCCCO3)no2)c(Cl)c1 (configuration not stated),8,5,-2,4.8,-17,12,4004
